# PrP 5UTR inh – inhibition of PrP 5' UTR reporter expression | cell-based PrP 5' UTR mRNA reporter, plate reader | 340,000 tested, 0.35% active | inhibition, % (no concentration beside the values) | AID 488862, 2010;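 active means every replicate at 50% or more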;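 further: 0 = median of the neutral control wells; tested in H4 reporter cells; numbers are from one replicate; inactives centre near -14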
# Mtb hypoxia inh – PubChem AID 1159583. M. tuberculosis hypoxia-regulated fluorescent reporter, fluorescence. 300,000 tested, 0.1% active. fluorescence inhibition, % (concentration not given with the values);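 active means 35 to 45% if threefold the growth effect, above 45% if 1.5-fold the growth effect; inactive means the rest, general growth blockers included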;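 further: wells of about 50 µL received 100 nL stock; 0% = vehicle wells and 100% = reference inhibitor wells; whole bacteria with a GFP reporter of the hypoxia response; strong numbers were not always called active; many hits fall short of the cut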
# BJeLR lethal – MLPCN primary cell-based screen for lethality selective to Ras in HRASV12 cells; BJeLR (HRASV12) viability, CellTiter-Glo ATP luminescence, 48 h; reference of the scale not given here; 300,000 tested, 0.17% active; AID 1554, 2009; inhibition, % (test concentration not listed);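 active means replicate mean above 50%; inconclusive means above 50% but judged a plate artefact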;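 further: 50 nL library stock added to about 25 µL; numbers are from one replicate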
# Sa ugtP lethal – growth inhibition of ugtP-null S. aureus, primary screen, RN4220 ugtP deletion, OD600. 16 h; some inactives read as strong as hits. growth inhibition, % (test concentration not listed). 330,000 tested, 0.54% active. AID 1259309, 2017;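 active means z-score under -3 and OD600 up to 0.15 on both plates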;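 further: plate controls were untreated wells for no effect and antibiotic for full effect; wells of about 80 µL received 100 nL stock; the first replicate is given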
# Sa RN4220 lethal – growth inhibition of S. aureus RN4220, primary screen, OD600. 16 h. inhibition, % (no concentration beside the values). 330,000 tested, 0.33% active;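 active means z-score of -3 or lower and OD600 up to 0.18 on both plates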;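 further: plate controls were untreated cells for no effect and reference antibiotic for full effect; stock transfer was 100 nL into about 80 µL; one replicate is shown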
# Autofluor counter – compound fluorescence in toxin protease inhibitor counterscreen | fluorescence intensity (no concentration beside the values) | compound autofluorescence counterscreen, microsphere flow cytometry; stronger effect = higher value | 360,000 tested, 3.1% active;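 active means at least 3 SD above the mean of all compounds, about 16000 in these data; inconclusive means too few beads counted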;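 further: 100 nL of 1 mM stock went into each well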
# Mtb hypoxia inh growth – second read-out of Mtb hypoxia inh, no call of its own (marks repeat the call); growth inhibition, %; measured here: M. tuberculosis growth (absorbance);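 0% = vehicle and 100% = reference antibiotic; read after six days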
# Active calls of the source: *; ? = inconclusive; · = not tested or not shown.
molecule	PrP 5UTR inh	Sa ugtP lethal	Sa RN4220 lethal	Autofluor counter	BJeLR lethal	Mtb hypoxia inh growth	Mtb hypoxia inh
Cc1c(C(=O)O)oc2ccc(S(=O)(=O)N(CC(C)C)CC(C)C)cc12	-24	-4	8.6	2383	·	·	·
CC(C)N(C(=O)[C@H]1CC(CC(=O)NCCN2CCOCC2)C(=O)N2CCc3c([nH]c4ccccc34)[C@]12C)C(C)C (some centres not stated)	-18	5	1.1	3551	·	-1	0
CNC(=O)CC(C(=O)O)c1ccc(OCC(C)C)cc1 (configuration not stated)	-2	0	1.2	7580	-4	9	6
CCN(CC)c1ccc(C(=O)OCC(=O)NC2CCCCC2C)cc1 (configuration not stated)	-6	-2	-2.5	4841	-16	·	·
Fc1ccc(-c2csc(=S)[nH]2)cc1	-26	2	-0.6	3144	0	8	-2
CCOC(=O)c1sc(NC(=O)/C=C/c2cnn(CC)c2C)c(C(=O)OCC)c1C	-12	-27	2.6	11444	4	14	-8
CCN(Cc1ccncc1)C(=O)CSc1ccc2ccccc2c1	-5	1	-3.2	4366	2	5	2
Cc1ccc(OCCC(=O)OCC(=O)Nc2cc(C)nn2-c2ccccc2)cc1	-3	9	4.2	5198	7	1	-1
O=C(COC(=O)c1cc2ccccc2o1)NCc1ccco1	·	8	8.5	·	·	2	11
COc1ccc(-c2cc(C#N)nc(Oc3ccc(Cl)cc3)n2)cc1	-31	12	-6.0	2427	-17	2	-4
CCOc1ccc(NC(=O)CN(C)Cc2cc(=O)n3c(-c4ccccc4)csc3n2)cc1OCC	-6	2	5.0	4222	0	-1	3
COc1ccc(C2C(C(=O)Nc3ccc4c(c3)OCCO4)c3ccccc3C(=O)N2C)cc1 (configuration not stated)	12	4	7.1	3355	0	2	7
O=C1OC(Cc2ccccn2)C(=O)C1=C1SCCS1 (configuration not stated)	-15	4	2.5	2529	25	2	5
CCc1nnc(NC(=O)C(NS(=O)(=O)c2ccc3c(c2)OCCO3)C(C)C)s1 (configuration not stated)	-15	4	5.6	3606	-11	10	5
O=C(c1cccc(S(=O)(=O)N2CCc3ccccc32)c1)N1CCc2ccccc2C1	-8	-1	7.2	9073	·	-7	9
COCc1cc(C)nc(SCC(=O)NC2CCCCC2C)c1C#N (configuration not stated)	-7	2	1.6	5581	-19	6	11
Cc1cccc(NC(=S)NC2CC3C=CC2C3)c1 (configuration not stated)	-20	4	-0.8	5813	-11	2	7
Cc1ccc(O)c(-c2cc(-c3ccccc3C)[nH]n2)c1	-44	·	·	2520	3	·	·
O=C(CSc1nc2ccccc2o1)NN=Cc1ccc(C(=O)O)cc1	·	-1	3.9	·	·	13	11
COc1ccc(C[C@H](C)NC[C@@H](O)c2ccc(O)c(NC=O)c2)cc1	-23	·	·	4258	0	·	·

# A different layout for part of the listing above:
# Values in the order: PrP 5UTR inh	Sa ugtP lethal	Sa RN4220 lethal	Autofluor counter	BJeLR lethal	Mtb hypoxia inh growth	Mtb hypoxia inh
> CCc1nnc(NC(=O)C(NS(=O)(=O)c2ccc3c(c2)OCCO3)C(C)C)s1 (configuration not stated)
→ -15	4	5.6	3606	-11	10	5
> O=C(c1cccc(S(=O)(=O)N2CCc3ccccc32)c1)N1CCc2ccccc2C1
→ -8	-1	7.2	9073	·	-7	9
> COCc1cc(C)nc(SCC(=O)NC2CCCCC2C)c1C#N (configuration not stated)
→ -7	2	1.6	5581	-19	6	11
> Cc1cccc(NC(=S)NC2CC3C=CC2C3)c1 (configuration not stated)
→ -20	4	-0.8	5813	-11	2	7

# (further entries)
molecule	PrP 5UTR inh	Sa ugtP lethal	Sa RN4220 lethal	Autofluor counter	BJeLR lethal	Mtb hypoxia inh growth	Mtb hypoxia inh
O=C(O)CSCNC(=O)CC12CC3CC(CC(C3)C1)C2	-25	-1	4.5	7178	0	1	1
CN(C)c1ccc(C(CNC(=O)COc2ccc(Cl)cc2)N2CCCC2)cc1 (configuration not stated)	-21	-5	4.2	4492	-1	-5	10
COc1cc2c(cc1OC)C(C)N(C(=O)Nc1ccc(F)cc1)CC2 (configuration not stated)	-17	11	3.3	3556	-1	7	15
CC1CCCCC1NC(=O)c1ccc(NC2=NC3CS(=O)(=O)CC3S2)cc1 (configuration not stated)	-14	-5	0.2	5767	-13	3	-4
CCOC(=O)N1CCC(NC(=O)c2cc(C(=O)NCc3cccc(Cl)c3)ccc2CO)CC1	-9	1	-0.7	4560	12	·	·
COC(=O)[C@H](CCSC)NC(=O)Cn1cnc2c(OCc3ccccc3)ncnc21	48	6	1.3	2979	·	2	-6
Cc1nc2ccc(-c3nc4cc(N)ccc4o3)cc2[nH]1	12	-8	2.6	3896	8	8	11
Cc1cc2cc(CN(CCN3CCOCC3)C(=O)Nc3ccccc3F)c(=O)[nH]c2cc1C	-12	-3	-16	2898	5	-13	25
CC(=O)Nc1ccc(OCC(O)CN2CCN(c3ccc(C)c(Cl)c3)CC2)cc1 (configuration not stated)	-10	1	4.5	11777	-10	-16	-8
C=C(c1ccccc1Cl)[n+]1ccccc1	-1	5	0.4	3379	0	-4	-5
CN(C)S(=O)(=O)c1cccc(NC(=O)c2sccc2-c2ccccc2)c1	-14	6	2.4	4988	-7	0	0
CCN(CC)C(=S)SCC(=O)c1ccc(Br)cc1	-72	18	14	2163	-3	13	23
CCC(=O)Nc1ccc(C(=O)NNC(=O)C2CCCCC2)cc1	-17	4	1.0	6081	·	15	9
O=C(NC(=S)NC1CCCCCCCCCCC1)c1cccnc1	-2	-6	0.5	2833	1	·	·
Cc1nc(SCc2ccc(O)c([N+](=O)[O-])c2)c([N+](=O)[O-])[nH]1	-24	-1	3.8	4111	3	·	·
Cc1nnc2n1-c1ccc(Br)cc1C(c1ccccc1Cl)=NC2	-9	3	7.5	3993	-5	9	5
O=C(COC(=O)c1ccc([N+](=O)[O-])cc1)NC12CC3CC(CC(C3)C1)C2	7	0	2.7	5641	·	5	6
Cc1cccc(C)c1OCc1cc(C(=O)N2CCN(c3ccccn3)CC2)no1	-30	2	1.2	5826	-5	8	4
CN(Cc1ccccc1)C(=O)COC(=O)c1cncc(Br)c1	72*	5	-0.3	4515	·	4	18
COc1cccc(CNc2ccc3[nH]c(=O)[nH]c3c2)c1OCc1ccccc1Cl	-46	-8	2.0	4032	-11	4	6

molecule	PrP 5UTR inh	Sa ugtP lethal	Sa RN4220 lethal	Autofluor counter	BJeLR lethal	Mtb hypoxia inh growth	Mtb hypoxia inh
COc1ccc(CC(=O)N2CCC(n3nccc3NC(=O)C3CC3)CC2)cc1	-3	2	-1.0	5896	0	4	13
O=C(NCc1cccc(Br)c1)C1CC(c2ccc(C(F)(F)F)cc2)=NO1 (configuration not stated)	-9	-1	2.1	3122	-10	16	15
COc1ccc2c(c1OC)C(=O)N(c1cccc(C)c1)C2	-106	-5	3.7	4689	5	·	·
C=CC[C@@H](Cc1ccc(F)cc1)C(=O)OC[C@H]1CCCN1C(=O)[C@@H](CC=C)CC(=O)N[C@@H](CO)Cc1ccccc1	-6	-11	0.5	3707	·	3	1
CCOc1ccccc1C(=O)N1CCC(n2nnc3cc(C(F)(F)F)ccc32)CC1	-10	14	0.7	6614	-5	13	10
O=C(CCS(=O)(=O)c1cccs1)N1CCN(c2ccc(F)cc2)CC1	-44	0	-0.9	3858	-9	6	15
COc1cccc(-c2nnc(SCC(=O)N3CCCC3=O)n2-c2ccccc2)c1	-16	3	0.9	8021	4	10	18
CN1CCN(S(=O)(=O)c2cccc(S(=O)(=O)c3cccc(S(=O)(=O)N4CCN(C)CC4)c3)c2)CC1	-26	-9	5.8	21260*	-5	11	-1
CCn1c(SCC(=O)Nc2cc(C)on2)nc2c1c(=O)n(C)c(=O)n2C	8	8	2.8	24541*	-1	3	6
CC(C)C[C@H](NC(=O)OC(C)(C)C)C(=O)NCC1CCC(C(=O)N[C@@H](Cc2ccccc2)C(=O)O)CC1 (some centres not stated)	-18	4	0.3	3584	9	-3	10
COC(=O)C1=C(C(=O)OC)[C@@H]2N(C)c3ccccc3[C@@]23C[C@@H](C(=O)OC)N(C(C)=O)C3=N1	-29	·	·	4266	-1	·	·
NC(=NOC(=O)c1ccccc1Cl)c1nonc1N	·	7	6.9	·	·	8	9
Cc1cc(/C=N/NC(=O)C(O)(c2ccccc2)c2ccccc2)c(C)n1-c1ccc(C(=O)O)cc1	-22	·	·	2008	-1	·	·
O=C(CN1C(=O)NC(Cc2c[nH]c3ccccc23)C1=O)NCCc1ccc(F)cc1 (configuration not stated)	-33	-6	2.5	3298	-1	9	-6
COc1ccc(OC)c(C(=O)NC(CC(N)=O)c2ccc(N3CCN(c4ccccn4)CC3)c([N+](=O)[O-])c2)c1 (configuration not stated)	-7	3	8.9	3935	-2	-4	1
COc1ccc([N+](=O)[O-])cc1NCc1ccccc1	-23	-2	5.7	2006	-11	·	·
CC(C)COC(=O)CNc1n[nH]c(=S)[nH]c1=O	-16	6	2.9	10488	8	-1	5
CCCc1nnc(NC(=O)CCC(=O)NC2CCCCCC2)s1	-16	-2	-4.1	6124	8	-6	-6
CC(C)(C)NC(=O)C1CCN(C(=O)c2ccc(Br)cc2)CC1	-7	6	1.6	19805*	4	8	2
COc1ccc(NC(=O)c2ccc(N3CCOCC3)nc2)cc1	-8	-6	-4.8	6102	10	-10	-3

molecule	PrP 5UTR inh	Sa ugtP lethal	Sa RN4220 lethal	Autofluor counter	BJeLR lethal	Mtb hypoxia inh growth	Mtb hypoxia inh
CCCC(C)C(=O)Nc1ccc(S(=O)(=O)Nc2nccc(C)n2)cc1 (configuration not stated)	-19	1	1.0	4621	-5	15	0
O=C(NCc1ccc2c(c1)OCO2)c1cc(-c2ccccc2)on1	-20	1	-0.3	5893	·	-2	-2
COc1cccc(-c2nn(-c3ccc(F)cc3)cc2C(=O)NCC2CCCO2)c1 (configuration not stated)	-9	-7	-3.6	?	-4	0	-3
NNC(=O)c1cc2nc(-c3cccs3)cc(C(F)(F)F)n2n1	-10	-8	8.0	2514	-7	1	14
COc1cc(NC(=O)C2CCCN2C(=O)OCc2ccccc2)cc(OC)c1 (configuration not stated)	-8	2	-0.8	4305	-2	·	·
Brc1ccc(CSc2ccc3nnc(-c4cccnc4)n3n2)cc1	-6	3	6.8	2974	29	15	11
CC(=O)Nc1ccc(-c2csc(NC(=O)CN3C(=O)NC4(CCCC4)C3=O)n2)cc1	-18	-3	2.1	4208	11	-6	3
O=C(NCCc1ccc(F)cc1)N1CCOCC1	-13	0	3.5	8541	4	10	9
Cc1ccc(C)c(-n2c(-c3ccncc3)n[nH]c2=S)c1	-9	14	2.7	4179	-6	8	13
CC(=O)c1nnn(-c2cccc(C#N)c2)c1C	7	1	3.4	6098	-16	-1	6
O=C(COc1ccccc1)Nc1nnc(-c2ccccc2Cl)o1	-6	·	·	6087	-5	·	·
COC(=O)C1=C(C)N(Cc2ccccc2)C(=NCc2ccco2)NC1c1cccc(F)c1 (configuration not stated)	·	1	-1.3	·	·	4	-3
COC(=O)COc1cccc(NC(=O)c2ccc(Cl)cc2)c1	-7	4	-0.1	4913	-3	0	2
C/C(CCCO)=N/Nc1ccc([N+](=O)[O-])cc1[N+](=O)[O-]	3	·	·	4044	-2	·	·
O=C(COC(=O)C1CCN(c2ccc(C(F)(F)F)cn2)CC1)NCCc1ccccc1	-13	3	3.1	6622	2	-7	-4
COc1ccccc1CN(C)CC(=O)Nc1ccc(Cl)cc1F	0	8	6.4	4584	-2	11	11
Cc1ccc(OCC(=O)NS(=O)(=O)c2ccccc2)cc1	-16	5	9.2	2268	1	0	8
CCC(C)NCCOCCOc1ccc(C)cc1OC (configuration not stated)	-13	4	-1.4	2300	-6	2	2
O=C(COc1ccc(/C=N/NC(=O)c2ccncc2)cc1)Nc1cccc([N+](=O)[O-])c1	-7	·	·	2967	3	·	·
O=C(Nc1nnc(-c2ccccc2F)s1)C1CCN(S(=O)(=O)c2ccc(Cl)cc2)CC1	-11	15	3.6	2096	2	-2	-4
O/N=C/c1cc(Br)cc(Br)c1OCc1ccccc1	-10	·	·	3205	9	·	·
CC(C)(C)OC(=O)NN=Cc1cccc([N+](=O)[O-])c1	·	-1	1.5	·	·	7	6
CCc1ccc(N=c2c([N+](=O)[O-])nn(-c3ccccc3)n2O)cc1	·	47	-6.2	8681	1	8	9
